Source: PubChem
HPGD inh: qHTS Assay for Inhibitors of HPGD (15-Hydroxyprostaglandin Dehydrogenase) | purified HPGD, NADH fluorescence kinetic, PGE2 substrate | Potency, µM, for inactives: at the highest dose activity change, negative = inhibition, actives largely listed as inhibitors | 150,000 compounds, 4.3% hits; active = well fitted inhibition curve with a large enough effect (not every such curve was filed as active); inconclusive = small, poorly fitted or top-dose-only effect, or another doubt; inactive = no such curve, though single readings can be large or run the other way;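 also: top concentration of the series not given in the record; plate controls included wells without enzyme; inactives centre near -10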
Target sequence (P15428 whole entry, looked up): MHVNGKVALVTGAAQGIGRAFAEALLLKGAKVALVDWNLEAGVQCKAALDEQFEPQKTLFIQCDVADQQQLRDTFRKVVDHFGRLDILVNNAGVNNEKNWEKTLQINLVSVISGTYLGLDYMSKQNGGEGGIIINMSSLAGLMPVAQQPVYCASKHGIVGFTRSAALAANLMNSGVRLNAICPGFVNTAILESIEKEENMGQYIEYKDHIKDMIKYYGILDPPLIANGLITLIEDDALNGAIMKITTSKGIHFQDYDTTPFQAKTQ
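20 nM HPGD preincubated 15 min at room temperature with compound in 50 mM Tris-HCl pH 8, 0.01% Tween 20. Started with 1 mM NAD+ and 30 uM prostaglandin E2; NADH fluorescence (360/450 nm) read 5 times over 30-s intervals, last minus first.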
The depositor's hits bear a star; & = joins results of further samples. % is scaled to controls: 0 for no effect and ±100 for the full control effect; potency is read from the fitted curve at half-maximal effect. A portion of the library; rates above refer to the full screens.

Results for CC1CN(CCc2ccccc2)c2nc3c(c(=O)[nH]c(=O)n3C)n2C1 (stereo not given) ?
HPGD inh: -6%

What do the screens show for `Cc1ccc(C)c(CSc2nnc(-c3cccnc3)n2N)c1`?
HPGD inh: inconclusive

How did Nc1nonc1C(=O)N/N=C/c1ccc(-c2cccc([N+](=O)[O-])c2)o1 do in these assays?
HPGD inh: -17%

What do the screens show for `CC(C)(C)c1cc2c(O)c(c1)Cc1cc(C(C)(C)C)cc(c1O)Cc1cc(C(C)(C)C)cc(c1O)Cc1cc(C(C)(C)C)cc(c1O)Cc1cc(C(C)(C)C)cc(c1O)Cc1cc(C(C)(C)C)cc(c1O)Cc1cc(C(C)(C)C)cc(c1O)Cc1cc(C(C)(C)C)cc(c1O)C2`?
HPGD inh: -5%

How did O=C(NC1CCCC1)c1ccc(S(=O)(=O)N2CCOCC2)cc1 do in these assays?
HPGD inh: -6%

What do the screens show for `Cc1oc(-c2cccc(Cl)c2)nc1CN1CCC(C(=O)NCc2ccco2)CC1`?
HPGD inh: 1%

How did COc1ccc(C(C)=O)cc1CSc1nc2cc(Cl)ccc2o1 do in these assays?
HPGD inh: -26%

How did O=C(CCN1C(=O)C2CC=C(Cl)CC2C1=O)NC1CCCCC1 (stereo not given) do in these assays?
HPGD inh: -9%

What do the screens show for `CC(C)(C)C(=O)NC(=S)Nc1ccccc1C(N)=O`?
HPGD inh: -20%

Results for Cc1ccc(S(=O)(=O)N2CCc3nc(COc4ccccc4)c4c(c3C2)CO[C@@H](C)C4)cc1 ?
HPGD inh: -10%

What do the screens show for `COc1ccccc1OCCN1CSC(=S)N(C)C1`?
HPGD inh: -17%

Results for CC(=O)OC1CC2C(C)(C)C(=O)CC[C@]2(C)C2CC[C@]3(C)C(=CC(=O)OC3c3ccoc3)[C@]12C (stereo not given in full) ?
HPGD inh: 1%

Results for CCOC(=O)CC(=O)CSc1nc2sc(C)cc2c(=O)n1Cc1ccco1 ?
HPGD inh: 28µM*

How did Cc1nn(C)c(C(=O)N2CCN(C(=O)c3ccco3)CC2)c1Br do in these assays?
HPGD inh: -5%

Results for c1ccc(C[n+]2cccc3c4ccccc4ccc32)cc1 ?
HPGD inh: inconclusive

What do the screens show for `COc1cc(C(C)=O)cc(OC)c1O`?
HPGD inh: -18%

How did COc1cc2c(cc1OC)CN(CC(=O)Nc1cccc(C)c1)CC2 do in these assays?
HPGD inh: -6%

How did CCCCn1c(C)cc(C)c(S(=O)(=O)c2ccccc2C)c1=O do in these assays?
HPGD inh: -3%

What do the screens show for `COc1ccc(N2CCN(CC(O)COc3ccccc3[N+](=O)[O-])CC2)cc1` (stereo not given)?
HPGD inh: 1%

Results for O=C(NCCCNCCCNC(=O)c1ccccn1)c1ccccn1 ?
HPGD inh: -7%

Next part (3 carried over from the part before).
How did CCCCn1c(C)cc(C)c(S(=O)(=O)c2ccccc2C)c1=O do in these assays?
HPGD inh: -3%

What do the screens show for `COc1ccc(N2CCN(CC(O)COc3ccccc3[N+](=O)[O-])CC2)cc1` (stereo not given)?
HPGD inh: 1%

Results for O=C(NCCCNCCCNC(=O)c1ccccn1)c1ccccn1 ?
HPGD inh: -7%

What do the screens show for `COc1ccccc1CNC(=O)CN(c1ccc(C)cc1)S(=O)(=O)c1c(C)nn(C)c1C`?
HPGD inh: 1%

What do the screens show for `Cc1ccc(S(=O)(=O)NNC(=O)c2snnc2C)cc1`?
HPGD inh: -4%

Results for CCOc1cc(C)c(C(C)C)cc1S(=O)(=O)N1CCN(C)CC1 ?
HPGD inh: -15%

What do the screens show for `CCn1c(=O)n(CC(=O)Nc2cccc(OC)c2)c(=O)c2ccccc21`?
HPGD inh: -21%

Results for Cc1cc2cc3c(cc2nc1SCC(=O)OC(C)C)OCO3 ?
HPGD inh: inconclusive

Results for CCc1nnc(NC(=O)CSc2nc3c(c(=O)n2C)SC(C)C3)s1 (stereo not given) ?
HPGD inh: -3%

Results for COC(=O)[C@@H]1C[C@@H]2CC[C@@H](O)C[C@@H]2N1CC1CCCCC1 ?
HPGD inh: -15%

What do the screens show for `COc1ccc(OC)c(Nc2nc(-c3ccc(O)c(O)c3)cs2)c1`?
HPGD inh: -7%

What do the screens show for `COCCCNC(=O)COc1cc(C)c(Cl)c(C)c1`?
HPGD inh: -22%

What do the screens show for `CC(=O)Nc1ccc(S(=O)(=O)N(Cc2ccccc2)C(C)C)cc1`?
HPGD inh: 0%

How did Cc1sc(N/N=C/c2cccnc2)nc1-c1ccccc1 do in these assays?
HPGD inh: -29%

What do the screens show for `Cc1ccc(-c2cn(-c3ccccc3)c(SCC(=O)NC3CCS(=O)(=O)C3)n2)cc1C` (stereo not given)?
HPGD inh: -11%

Results for CCOc1ccc(NC(=O)CSc2nc3ccccc3c(=O)n2Cc2cccs2)cc1 ?
HPGD inh: -2%

How did CC(=O)c1cccc(NC(=O)CN2C(=O)COc3ccc(Cl)cc32)c1 do in these assays?
HPGD inh: -10%

What do the screens show for `CCC(C(=O)NCc1ccco1)n1nc(-c2ccc(OC)cc2)ccc1=O` (stereo not given)?
HPGD inh: -13%

What do the screens show for `COCC(=O)N1CCC2(CCN(Cc3ccccc3OC)CC2)CC1`?
HPGD inh: 1%

Results for O=C(CSc1nnnn1C1CCCCC1)Nc1ccc2c(c1)OCO2 ?
HPGD inh: -3%

Results for Cc1ccc(S(=O)(=O)N2CCOCC2)cc1C(=O)NC1CCCCC1 ?
HPGD inh: -9%

Results for Cc1ccc(C)n1-c1ccc(C(=O)NCC2CCCO2)cc1 (stereo not given) ?
HPGD inh: 8.9µM*

What do the screens show for `C/C(=N\NC(=O)c1ccccc1)c1nc2ccccc2n1C`?
HPGD inh: -15%

How did CC(C)CCNC(=O)CCC(=O)NNc1nc2ccccc2c2nc(-c3ccccc3)nn12 do in these assays?
HPGD inh: -14%

How did Clc1ccc(OCc2nnc(SCc3nc4ccccc4[nH]3)n2Cc2ccco2)cc1 do in these assays?
HPGD inh: -2%

Results for CCOc1ccc(C2/C(=C(/O)c3ccc(OC)cc3)C(=O)C(=O)N2c2cc(C)on2)cc1OC (stereo not given) ?
HPGD inh: -13%

How did Fc1ccc(C2CC(c3ccccc3)n3ncnc3N2)cc1 (stereo not given) do in these assays?
HPGD inh: -5%

How did CC(C)(C)c1ccc(-c2cc(N)n[nH]2)cc1 do in these assays?
HPGD inh: -22%

What do the screens show for `CCOP(=O)(OCC)C(C)(C)NC(=O)c1cc([N+](=O)[O-])cc([N+](=O)[O-])c1`?
HPGD inh: -3%

Results for N#Cc1nc(-c2ccco2)oc1N1CCC(Cc2ccccc2)CC1 ?
HPGD inh: inconclusive

Results for C1CSC2(N1)C1CC3CC(C1)CC2C3 (stereo not given) ?
HPGD inh: -11%

Results for Cc1ccc(C)c(N2CCN(C(=O)c3cc4sccc4n3C)CC2)c1 ?
HPGD inh: -11%

How did Cc1cc(NC(=O)C2CC(c3ccccc3Cl)=NO2)no1 (stereo not given) do in these assays?
HPGD inh: -9%

Results for Cn1c(SCC(=O)NC(=O)NCc2ccco2)nnc1-c1ccccc1 ?
HPGD inh: -6%

Results for CCn1cc(C(=O)NCc2ccco2)c(=O)c2cc(F)c(N3CCN(C(=O)c4ccco4)CC3)cc21 ?
HPGD inh: inconclusive

Results for COc1ccc(NC(=O)Nc2ccccc2F)cc1 ?
HPGD inh: -7%

What do the screens show for `COc1ccc2c(c1)O[C@@H](c1cccc(C(F)(F)F)c1)[C@H](OC(=O)N[C@H]1CCCc3ccccc31)C2=O`?
HPGD inh: -15%&-13%

How did O=C(COC(=O)CCc1ccc(S(=O)(=O)N2CCOCC2)cc1)Nc1ccc(Cl)cn1 do in these assays?
HPGD inh: -15%

What do the screens show for `Brc1ccccc1C1CC(c2ccccc2)=Nc2ccccc2N1` (stereo not given)?
HPGD inh: -17%

How did O=C(CN1CCC(N2CCCCC2)CC1)N1CCCc2ccccc21 do in these assays?
HPGD inh: -3%

How did O=S(=O)(Nc1ccc(S(=O)(=O)Nc2nccs2)cc1)c1ccc2c(c1)OCCO2 do in these assays?
HPGD inh: -20%

How did COc1cccc(C2=NN(C(=O)c3ccccc3)C(O)(C(F)(F)F)C2)c1 (stereo not given) do in these assays?
HPGD inh: -12%

Results for CN1CCN(C(=O)CCn2nc(-c3ccccc3)c3ccccc3c2=O)CC1 ?
HPGD inh: -12%

What do the screens show for `CCN1C(=O)N[C@@H](c2ccco2)C(C(=O)OC)=C1C`?
HPGD inh: -8%

How did COC(=O)c1sc(NC(=O)CSc2nc3cccnc3n2C2CCCCC2)nc1C do in these assays?
HPGD inh: -17%

How did O=c1c2ccccc2[nH]c(=S)n1CCN1CCC(=C(c2ccc(F)cc2)c2ccc(F)cc2)CC1 do in these assays?
HPGD inh: -17%

Results for Cn1c(=O)c2c(O)cc(=O)n(-c3ccccc3)c2n(C)c1=O ?
HPGD inh: -21%

Results for Cc1cc2ncn(C(=O)c3ccc4c(c3)OCO4)c2cc1C ?
HPGD inh: -23%

How did Cc1occc1-c1nnc(SCC(=O)NC2CCCC2)n1-c1ccccc1 do in these assays?
HPGD inh: -8%

Results for CC(C)(C)C1CCC2(CC1)C(C#N)=C(SCC(=O)NC1CCCCC1)NC(=O)C2C#N (stereo not given) ?
HPGD inh: -14%

Results for CN(C)S(=O)(=O)c1nc(Cl)c2[nH]cnc2n1 ?
HPGD inh: -7%

Results for Brc1ccc(-c2cn3ccccc3n2)s1 ?
HPGD inh: -23%

Results for Cc1ccc2c(CSc3nc4ccccc4c(=O)n3CCCO)cc(=O)oc2c1C ?
HPGD inh: inconclusive

How did Cn1c(SCC(=O)Nc2ccc(F)cc2F)nnc1-c1cccnc1 do in these assays?
HPGD inh: -5%

How did Cc1ccc(NC(N)=S)cc1 do in these assays?
HPGD inh: -7%

What do the screens show for `Cc1nc(NC(=O)C23CCC(C)(C(=O)O2)C3(C)C)sc1C` (stereo not given)?
HPGD inh: -8%

Results for Cc1ccc(C)c(S(=O)(=O)N2CCN(CC(=O)Nc3cc(C)on3)CC2)c1 ?
HPGD inh: -1%

Results for CC(C(=O)Nc1sc2c(c1C(=O)NCC1CCCO1)CCC2)N1C(=O)c2ccccc2C1=O (stereo not given) ?
HPGD inh: -14%

What do the screens show for `O=C(Nc1ccccc1)/C(=C\c1cccs1)NC(=O)c1ccccc1`?
HPGD inh: -17%

Results for COc1cccc(-c2cc(C(F)(F)F)nc(N3CCC(C)CC3)n2)c1 ?
HPGD inh: inconclusive

Results for COc1ccc(-n2c(SCC(=O)N3CCOCC3)nc(O)c(Cc3ccccc3)c2=O)cc1 ?
HPGD inh: -1%

What do the screens show for `Nc1nonc1C(=O)NCCNCc1ccccc1OCc1ccc(F)cc1`?
HPGD inh: -1%

How did Cn1c(=O)c(Cc2ccccc2)c(O)c2ccccc21 do in these assays?
HPGD inh: inconclusive

Ordered by molar mass (smallest number first): 5 of the compounds above.
How did Cn1c(=O)c(Cc2ccccc2)c(O)c2ccccc21 do in these assays?
HPGD inh: inconclusive

Results for COc1cccc(-c2cc(C(F)(F)F)nc(N3CCC(C)CC3)n2)c1 ?
HPGD inh: inconclusive

How did Cn1c(SCC(=O)Nc2ccc(F)cc2F)nnc1-c1cccnc1 do in these assays?
HPGD inh: -5%

How did Cc1occc1-c1nnc(SCC(=O)NC2CCCC2)n1-c1ccccc1 do in these assays?
HPGD inh: -8%

What do the screens show for `Nc1nonc1C(=O)NCCNCc1ccccc1OCc1ccc(F)cc1`?
HPGD inh: -1%

(list continues)
Results for CCOC(=O)N1CCN(/C=C(\C#N)c2nc3ccccc3s2)CC1 ?
HPGD inh: -13%

Results for CCOC(=O)C1(c2ccccc2)NC(c2ccccc2C)C2C(=O)N(c3ccc4c(c3)OCO4)C(=O)C21 (stereo not given) ?
HPGD inh: -5%

How did O=C(COC(=O)/C=C/c1cccc(Br)c1)NCCC1=CCCCC1 do in these assays?
HPGD inh: -16%

Results for COc1cc(CNCc2ccccn2)ccc1OCc1ccccc1Cl ?
HPGD inh: -3%

What do the screens show for `CC1CC(C)CN(c2ccc(-n3cnnn3)cc2[N+](=O)[O-])C1` (stereo not given)?
HPGD inh: -12%

Results for Clc1ccc(/C=C/c2nc3ccccc3[nH]2)cc1 ?
HPGD inh: inconclusive

What do the screens show for `CN(C)S(=O)(=O)c1ccc(S(=O)(=O)N2CCN(CCC#N)CC2)cc1`?
HPGD inh: -6%

How did Cc1ccccc1C(=O)NNC(=O)C(C)N1C(=O)c2ccccc2C1=O (stereo not given) do in these assays?
HPGD inh: inconclusive

What do the screens show for `CCCc1[nH]nc2c1C(c1ccc(OC)c(CSC3=NCCS3)c1)C(C#N)=C(N)O2` (stereo not given)?
HPGD inh: -27%

What do the screens show for `Cn1c(=O)c2cc(S(=O)(=O)NC(Cc3ccccc3)C(=O)NCc3ccco3)ccc2n(C)c1=O` (stereo not given)?
HPGD inh: -18%

Results for O=C(NC1CCCC1)C1c2ccccc2C(=O)N1C1CCCCC1 (stereo not given) ?
HPGD inh: -2%

Results for O=C(C1=C(O)C(=O)N(Cc2ccccc2)C1c1ccncc1)c1ccco1 (stereo not given) ?
HPGD inh: -4%

How did CC(C)CCN(C)C1CCN(C(=O)Nc2c(F)cccc2F)CC1 do in these assays?
HPGD inh: -1%

How did CC(=O)N1CCN(S(=O)(=O)c2ccc(C)cc2)C1C(C)C (stereo not given) do in these assays?
HPGD inh: -7%

How did CC(C)(C)NC(=O)c1cccc(NC(=O)c2ccco2)c1 do in these assays?
HPGD inh: -10%

What do the screens show for `COC(=O)C/C=C/[C@@H](C)[C@@H](/C=N/OCC[C@@H]1C=C[C@H](OC(C)=O)[C@@H](COC(C)=O)O1)NS(=O)(=O)c1ccc(C)cc1`?
HPGD inh: inconclusive

How did O=C(COC(=O)c1cnccn1)c1ccc2ccccc2c1 do in these assays?
HPGD inh: -22%
